Screens as filed in PubChem.
UUG fidelity = modulators of start codon recognition fidelity in yeast. S. cerevisiae UUG-firefly luciferase reporter, luminescence/redox ratio. activity score, % at 18.7 µM. 350,000 tested, 0.13% active;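 active means replicate mean at a twofold rise or more, about +100% in these data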;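 further: firefly luciferase made from a UUG start codon reports start codon fidelity; reporter light over untreated wells divided by growth signal over untreated wells; some hits fall short of that in this replicate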
Env fusion inh = HIV envelope-mediated fusion inhibition. inhibition, % at 12.3 µM. 360,000 tested, 1.1% active. HeLa-JRFL Env/CEM21 cell fusion, luciferase. AID 651610;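 active means mean replicate inhibition score of at least 50 and every replicate individually at or above 50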;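 further: 0% = plate neutral controls and 100% = maraviroc near 300 nM; one replicate is shown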
The depositor's hits bear a star; [ ] = dose if it differs, or a comment. Not all compounds are listed. The share of hits here may be higher or lower than overall.

For C[C@H](CO)N1C[C@H](C)[C@@H](CN(C)Cc2ccc3c(c2)OCO3)Oc2ccc(NC(=O)Cc3ccccc3)cc2CC1=O the results were UUG fidelity 8 and Env fusion inh -12[16.7 µM].
C[C@H]1CCCCO[C@H](CN(C)Cc2ccc(Cl)c(Cl)c2)[C@@H](C)CN([C@@H](C)CO)C(=O)c2cc(NC(=O)NC3CCCCC3)ccc2O1 was read as UUG fidelity -3 and Env fusion inh 14[16.7 µM].
Screening C[C@H](CO)N1C[C@H](C)[C@@H](CN(C)Cc2ccc3c(c2)OCO3)Oc2ccc(N(C)C)cc2C1=O returned UUG fidelity -9 and Env fusion inh 3[16.7 µM].
For COc1ccc(-c2cnc3c(c2)C(=O)N([C@@H](C)CO)C[C@@H](C)[C@@H](CN(C)C(=O)C2CC2)O3)cc1 the results were UUG fidelity 0 and Env fusion inh -34[16.7 µM].
C[C@@H]1CCCCO[C@@H](CN(C)Cc2ccccc2)[C@H](C)CN([C@@H](C)CO)C(=O)c2cc(NC(=O)NC3CCCCC3)ccc2O1 was read as UUG fidelity 13 and Env fusion inh 15[16.7 µM].
CO[C@H]1O[C@H](CO)[C@@H](OC(=O)Nc2ccccc2)[C@H](OC(=O)Nc2ccc3c(c2)OCO3)[C@H]1OC(=O)Nc1ccc2c(c1)OCO2 was read as UUG fidelity 9 and Env fusion inh 13[16.7 µM].
Cc1ccccc1S(=O)(=O)N[C@H]1CC[C@H](CCn2cc(-c3ccccc3)nn2)O[C@@H]1CO was read as UUG fidelity 4 and Env fusion inh -2[16.7 µM].
For COC(=O)C[C@@H]1CC[C@@H]2[C@H](COc3ccc(NS(=O)(=O)c4ccccc4F)cc3C(=O)N2C)O1 the results were UUG fidelity 1 and Env fusion inh -11[16.7 µM].
Screening COc1cccc(S(=O)(=O)N(C)C[C@@H]2Oc3ncc(-c4ccccc4)cc3C(=O)N([C@H](C)CO)C[C@@H]2C)c1 returned UUG fidelity 23 and Env fusion inh 15[16.7 µM].
`COc1ccc(NC(=O)N(C)C[C@H]2OCCCC[C@H](C)Oc3ccc(NC(=O)Nc4ccc(C(F)(F)F)cc4)cc3C(=O)N([C@@H](C)CO)C[C@@H]2C)cc1` gave UUG fidelity -8 and Env fusion inh 5[16.7 µM].
O=C(C[C@@H]1C[C@H]2c3cc(NC(=O)NC4CCCC4)ccc3O[C@H]2[C@H](CO)O1)NCCN1CCCCC1 was read as UUG fidelity -10 and Env fusion inh -8[16.7 µM].
C=CCOC(=O)[C@@H]1[C@H]2C(=O)O[C@H](c3ccccc3)[C@H](c3ccccc3)N2[C@H](c2ccc(OCCOC(=O)[C@@H]3C[C@@H]4C(=O)N[C@@H](CCCCNC(C)=O)C(=O)N4[C@@H]3c3ccc(O)cc3)cc2)[C@@]12C(=O)Nc1ccc(I)cc12 was read as UUG fidelity -18 and Env fusion inh -2[16.7 µM].
Screening COc1ccc(NC(=O)N(C)C[C@@H]2OCCCC[C@H](C)Oc3ccc(NC(=O)c4ccccc4)cc3C(=O)N([C@H](C)CO)C[C@H]2C)cc1 returned UUG fidelity 3 and Env fusion inh -11[16.7 µM].
Cc1noc(C)c1S(=O)(=O)Nc1ccc2c(c1)C(=O)N([C@H](C)CO)C[C@H](C)[C@H](CN(C)C(=O)NC1CCCCC1)OCCCC[C@H](C)O2 was read as UUG fidelity -1 and Env fusion inh -213[16.7 µM].
`COc1ccccc1CNC(=O)C[C@@H]1CC[C@@H]2[C@H](COc3ccc(NC(C)=O)cc3C(=O)N2C)O1` gave UUG fidelity 16 and Env fusion inh 0[16.7 µM].
Screening C#CCNC(=O)C1=C[C@H](c2cn(C(C)=O)c3ccccc23)C[C@H](OCCCCO)O1 returned UUG fidelity -1 and Env fusion inh 13[16.7 µM].
`COc1cccc(S(=O)(=O)N(C)C[C@H]2Oc3cc(C#CCC(C)C)ccc3S(=O)(=O)N([C@@H](C)CO)C[C@@H]2C)c1` gave UUG fidelity -9 and Env fusion inh 42[16.7 µM].
For CNC[C@@H]1OCc2cn(nn2)CCCC(=O)N([C@@H](C)CO)C[C@H]1C the results were UUG fidelity -9 and Env fusion inh -14[16.7 µM].
CC(C)NC(=O)N(C)C[C@H]1OCCCC[C@H](C)Oc2ccc(NC(=O)c3ccncc3)cc2C(=O)N([C@H](C)CO)C[C@@H]1C was read as UUG fidelity 4 and Env fusion inh 20[16.7 µM].
Screening C[C@H]1CN([C@@H](C)CO)C(=O)c2cc(C3=CCCC3)cnc2O[C@@H]1CN(C)C(=O)c1ccccc1 returned UUG fidelity 12 and Env fusion inh 9[16.7 µM].
COc1ccc(NC(=O)Nc2ccc3c(c2)CC(=O)N([C@@H](C)CO)C[C@@H](C)[C@H](CN(C)Cc2ccc(Oc4ccccc4)cc2)O3)cc1 was read as UUG fidelity 15 and Env fusion inh 19[16.7 µM].
C[C@@H]1CN([C@H](C)CO)C(=O)c2cc(-c3ccc(C(=O)N(C)C)cc3)cnc2O[C@H]1CN(C)C was read as UUG fidelity 3 and Env fusion inh 14[16.7 µM].
`C[C@@H](NC(=O)C[C@@H]1CC[C@H](NC(=O)CN2CCOCC2)[C@H](CO)O1)c1ccccc1` gave UUG fidelity 12 and Env fusion inh -1[16.7 µM].
For CCCC(=O)Nc1ccc2c(c1)C(=O)N(C)[C@H]1CC[C@@H](CC(=O)OC)O[C@H]1CO2 the results were UUG fidelity 1 and Env fusion inh 29[16.7 µM].
For CC(C)CC#Cc1cnc2c(c1)C(=O)N([C@H](C)CO)C[C@H](C)[C@H](CN(C)C(=O)Nc1ccccc1F)O2 the results were UUG fidelity 12 and Env fusion inh 11[16.7 µM].
Cc1noc(C)c1S(=O)(=O)N(C)C[C@H]1Oc2ccc(NC(=O)Nc3ccc(F)cc3)cc2CC(=O)N([C@H](C)CO)C[C@@H]1C was read as UUG fidelity -14 and Env fusion inh 13[16.7 µM].
Screening COc1cccc(-c2cn(CC[C@H]3CC[C@H](NC(=O)CC4CC4)[C@H](CO)O3)nn2)c1 returned UUG fidelity -2 and Env fusion inh 7[16.7 µM].
`CCCNC(=O)N(C)C[C@H]1Oc2ncc(C#CC3(O)CCCC3)cc2C(=O)N([C@@H](C)CO)C[C@H]1C` gave UUG fidelity 16 and Env fusion inh -8[16.7 µM].
`C[C@@H]1CN([C@@H](C)CO)C(=O)Cc2cc(NC(=O)C3CCCCC3)ccc2O[C@@H]1CN(C)C(=O)Nc1cccc2ccccc12` gave UUG fidelity -1 and Env fusion inh 8[16.7 µM].
Screening Cc1noc(C)c1S(=O)(=O)N(C)C[C@@H]1Oc2ccc(NC(=O)Cc3cn(C)c4ccccc34)cc2CC(=O)N([C@H](C)CO)C[C@H]1C returned UUG fidelity -7 and Env fusion inh -6[16.7 µM].
COc1ccc(C#Cc2ccc3c(c2)O[C@H](CN(C)S(=O)(=O)c2ccccc2F)[C@H](C)CN([C@@H](C)CO)S3(=O)=O)cc1 was read as UUG fidelity 0 and Env fusion inh 11[16.7 µM].
Screening C[C@H]1CN([C@@H](C)CO)C(=O)Cc2cc(NS(=O)(=O)c3cn(C)cn3)ccc2O[C@@H]1CN(C)Cc1ccccc1 returned UUG fidelity -10 and Env fusion inh 17[16.7 µM].
Screening C[C@@H]1CN([C@H](C)CO)C(=O)c2cc(NS(=O)(=O)c3cn(C)cn3)ccc2O[C@@H](C)CCCCO[C@@H]1CN(C)Cc1ccccc1 returned UUG fidelity -5 and Env fusion inh 8[16.7 µM].
O=C(C[C@@H]1C[C@@H]2c3cc(NC(=O)C4CCC4)ccc3O[C@@H]2[C@H](CO)O1)NCc1ccc2c(c1)OCO2 was read as UUG fidelity -9 and Env fusion inh 27[16.7 µM].
C[C@@H]1CN([C@@H](C)CO)C(=O)Cc2cc(NC(=O)Nc3ccc(F)cc3)ccc2O[C@@H]1CN(C)C(=O)Nc1cccc2ccccc12 was read as UUG fidelity 1 and Env fusion inh -13[16.7 µM].
C=CCOC(=O)[C@H]1[C@@H]2C(=O)O[C@@H](c3ccccc3)[C@@H](c3ccccc3)N2[C@@H](c2ccc(OCCOC(=O)[C@@H]3C[C@@H]4C(=O)NCC(=O)N4[C@@H]3c3cccc(OCCO)c3)cc2)[C@]12C(=O)Nc1ccc(I)cc12 was read as UUG fidelity 4 and Env fusion inh -5[16.7 µM].
`CO[C@@H]1CN(C)C(=O)c2cc(NC(=O)c3cnccn3)ccc2OC[C@@H](C)N(C)C[C@@H]1C` gave UUG fidelity -4 and Env fusion inh -1[16.7 µM].
`Cc1noc(C)c1S(=O)(=O)Nc1ccc2c(c1)C(=O)N([C@@H](C)CO)C[C@@H](C)[C@H](CN(C)C(=O)c1ccccc1)OCCCC[C@@H](C)O2` gave UUG fidelity 31 and Env fusion inh 14[16.7 µM].
COc1ccc(CN2C[C@H](O)COC[C@H]3O[C@@H](CC(=O)NCc4ccccc4Cl)CC[C@@H]32)cc1 was read as UUG fidelity -19 and Env fusion inh 2[16.7 µM].
Screening CCCC(=O)Nc1ccc2c(c1)C(=O)N(C)[C@H]1CC[C@@H](CC(=O)NCCOC)O[C@H]1CO2 returned UUG fidelity -14 and Env fusion inh -24[16.7 µM].

Ordered by number of heavy atoms (descending): 3 of the compounds above.
COc1ccc(NC(=O)Nc2ccc3c(c2)CC(=O)N([C@@H](C)CO)C[C@@H](C)[C@H](CN(C)Cc2ccc(Oc4ccccc4)cc2)O3)cc1 was read as UUG fidelity 15 and Env fusion inh 19[16.7 µM].
`CCCNC(=O)N(C)C[C@H]1Oc2ncc(C#CC3(O)CCCC3)cc2C(=O)N([C@@H](C)CO)C[C@H]1C` gave UUG fidelity 16 and Env fusion inh -8[16.7 µM].
For CCCC(=O)Nc1ccc2c(c1)C(=O)N(C)[C@H]1CC[C@@H](CC(=O)OC)O[C@H]1CO2 the results were UUG fidelity 1 and Env fusion inh 29[16.7 µM].

The results go on:
COCC(=O)Nc1ccc2c(c1)OC[C@H](C)NC[C@@H](C)[C@@H](OC)CN(C)C2=O was read as UUG fidelity -12 and Env fusion inh -9[16.7 µM].
Screening COc1ccc(CN(C)C[C@H]2Oc3ccc(NC(=O)Nc4ccc(C(F)(F)F)cc4)cc3CC(=O)N([C@@H](C)CO)C[C@H]2C)cc1 returned UUG fidelity 6 and Env fusion inh 1[16.7 µM].
Screening C[C@H](CO)N1C[C@H](C)[C@H](CN(C)Cc2ccc(Cl)c(Cl)c2)Oc2c(NS(=O)(=O)c3ccccc3)cccc2C1=O returned UUG fidelity -9 and Env fusion inh 6[16.7 µM].
Screening O=S(=O)(N[C@@H]1CC[C@H](CCn2cc(-c3cccnc3)nn2)O[C@@H]1CO)c1ccc(F)cc1 returned UUG fidelity -17 and Env fusion inh -6[16.7 µM].
For CCC(=O)N1C[C@H](O)COC[C@@H]2O[C@H](CC(=O)NCC3CCCCC3)CC[C@H]21 the results were UUG fidelity -3 and Env fusion inh 12[16.7 µM].
For Cc1ccc(-c2cnc3c(c2)C(=O)N([C@H](C)CO)C[C@@H](C)[C@H](CN(C)C(=O)CN(C)C)O3)cc1 the results were UUG fidelity -7 and Env fusion inh -24[16.7 µM].
For C[C@@H]1CCCCO[C@@H](CN(C)C(=O)Nc2cccc3ccccc23)[C@@H](C)CN([C@H](C)CO)C(=O)c2cc(NS(=O)(=O)c3cccs3)ccc2O1 the results were UUG fidelity -9 and Env fusion inh 16[16.7 µM].
`CCC(=O)N(C)C[C@H]1Oc2cc(-c3ccc(C#N)cc3)ccc2S(=O)(=O)N([C@@H](C)CO)C[C@@H]1C` gave UUG fidelity 25 and Env fusion inh -14[16.7 µM].
For COc1ccc(NC(=O)Nc2ccc3c(c2)C(=O)N([C@@H](C)CO)C[C@@H](C)[C@H](CN(C)Cc2ccc4c(c2)OCO4)OCCCC[C@@H](C)O3)cc1 the results were UUG fidelity 16 and Env fusion inh 10[16.7 µM].
For COc1cccc(C#Cc2ccc3c(c2)O[C@H](CN(C)C(=O)c2ccccn2)[C@@H](C)CN([C@@H](C)CO)S3(=O)=O)c1 the results were UUG fidelity -1 and Env fusion inh 2[16.7 µM].
Screening C[C@H](CO)N1C[C@H](C)[C@@H](CN(C)Cc2ccc3c(c2)OCO3)Oc2ccc(NC(=O)C3CC3)cc2C1=O returned UUG fidelity -10 and Env fusion inh 6[16.7 µM].
For O=C(C[C@H]1C=C[C@@H](NC(=O)Nc2cc(F)ccc2F)[C@@H](CO)O1)Nc1ccccc1 the results were UUG fidelity -6 and Env fusion inh 8[16.7 µM].
For C[C@H]1CN([C@@H](C)CO)C(=O)c2cccc(NC(=O)C3CCOCC3)c2O[C@@H]1CN(C)Cc1ccncc1 the results were UUG fidelity -8 and Env fusion inh 6[16.7 µM].
C[C@H](CO)N1C[C@H](C)[C@H](CN(C)S(=O)(=O)c2ccccc2)Oc2ncc(-c3cccc(C(F)(F)F)c3)cc2C1=O was read as UUG fidelity -8 and Env fusion inh -26[16.7 µM].
Screening O=C(N[C@H]1C=C[C@H](CC(=O)N2CCN(c3ccccc3)CC2)O[C@@H]1CO)c1ccccc1 returned UUG fidelity -7 and Env fusion inh 0[16.7 µM].

Entries above with two or more sulfur atoms:
`COc1cccc(S(=O)(=O)N(C)C[C@H]2Oc3cc(C#CCC(C)C)ccc3S(=O)(=O)N([C@@H](C)CO)C[C@@H]2C)c1` gave UUG fidelity -9 and Env fusion inh 42[16.7 µM].
COc1ccc(C#Cc2ccc3c(c2)O[C@H](CN(C)S(=O)(=O)c2ccccc2F)[C@H](C)CN([C@@H](C)CO)S3(=O)=O)cc1 was read as UUG fidelity 0 and Env fusion inh 11[16.7 µM].
For C[C@@H]1CCCCO[C@@H](CN(C)C(=O)Nc2cccc3ccccc23)[C@@H](C)CN([C@H](C)CO)C(=O)c2cc(NS(=O)(=O)c3cccs3)ccc2O1 the results were UUG fidelity -9 and Env fusion inh 16[16.7 µM].
